Screening results from PubChem BioAssay.
PKD1 inh – inhibitors of human PKD1 kinase, biochemical, fluorescence polarization; Serine/threonine-protein kinase D1 (Homo sapiens), Q15139; PKD1 kinase fluorescence polarization assay; inhibition, %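 (about 10 µM by stock and volumes)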; 200,000 tested, 0.056% active;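 active means inhibition of 50% or more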;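 further: controls were vehicle for no effect and a reference inhibitor for full effect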
Target sequence (Q15139 whole entry, looked up): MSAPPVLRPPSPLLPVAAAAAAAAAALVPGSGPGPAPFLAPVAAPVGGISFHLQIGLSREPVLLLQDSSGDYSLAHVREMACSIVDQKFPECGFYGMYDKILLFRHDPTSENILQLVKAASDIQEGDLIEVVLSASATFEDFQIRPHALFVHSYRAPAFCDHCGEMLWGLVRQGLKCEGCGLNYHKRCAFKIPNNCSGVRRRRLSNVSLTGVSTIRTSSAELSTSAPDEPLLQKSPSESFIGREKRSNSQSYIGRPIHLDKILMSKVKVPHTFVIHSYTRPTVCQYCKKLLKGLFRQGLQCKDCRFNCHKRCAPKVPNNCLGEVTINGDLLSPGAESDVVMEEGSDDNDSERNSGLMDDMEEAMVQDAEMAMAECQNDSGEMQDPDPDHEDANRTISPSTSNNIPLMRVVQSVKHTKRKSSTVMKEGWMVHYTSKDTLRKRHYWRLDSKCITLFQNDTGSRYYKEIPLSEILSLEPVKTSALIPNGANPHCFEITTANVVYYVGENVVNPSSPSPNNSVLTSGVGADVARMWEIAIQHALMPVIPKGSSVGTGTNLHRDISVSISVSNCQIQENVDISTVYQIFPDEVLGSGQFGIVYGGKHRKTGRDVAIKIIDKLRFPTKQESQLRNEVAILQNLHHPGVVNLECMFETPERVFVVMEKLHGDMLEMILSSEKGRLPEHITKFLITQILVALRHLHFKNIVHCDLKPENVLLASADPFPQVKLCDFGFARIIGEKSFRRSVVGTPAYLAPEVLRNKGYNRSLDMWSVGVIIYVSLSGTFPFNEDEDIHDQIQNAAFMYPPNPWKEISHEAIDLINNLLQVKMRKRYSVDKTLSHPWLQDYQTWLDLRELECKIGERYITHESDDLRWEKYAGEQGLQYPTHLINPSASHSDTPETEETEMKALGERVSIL
RGS16-Gao – modulators of RGS16 binding to Galphao, primary screen, biochemical, human proteins, multiplexed bead flow cytometry. 220,000 tested, 0.38% active. binding response (% of control), % at 10 µM. Regulator of G-protein signaling 16 (Homo sapiens) + Guanine nucleotide-binding protein …. bead-based flow cytometry RGS16-Galphao binding, fluorescence; actives lie on both sides;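 active means below 25% or above 175%, edge rows of some plates excepted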;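 further: Galphao activated by GDP with aluminum fluoride before binding; 100% = wells without compound and 0% = beads without RGS; some results beyond the cut were filed as inactive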
HSV replic up – enhancers of HSV replication in host cells, fold increase, host cell viability; HSV replication augmentation in cells; maximum fold increase; 220,000 tested, 0.005% active; AID 1956, 2009;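 active means peak rise of 1.5-fold or more in the series; inconclusive means self-fluorescent or not available for retest; tested in PC3 cells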;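 further: first round at 10 µM; read as green reporter fluorescence; hits show the peak of a series up to 25 µM; 1 = signal of infected wells without compound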
GALR2 agonist – GALR2 receptor agonists, primary screen, cell-based | Galanin receptor type 2 (Homo sapiens), O43603 | GALR2-expressing cells, agonist activation read-out | activation, %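 (tested at 5 µM)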 | 140,000 tested, 0.48% active | AID 803, 2007;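 active means above mean plus 3 SD of all compounds, about 5% in these data, not always enough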;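 further: 0% = vehicle buffer wells and 100% = reference agonist at full effect; tested in CHO reporter cells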
INS promoter inh – inhibitors of insulin promoter-driven GFP, primary screen, imaging, TRM-6 cells (human fetal islet line), eGFP reporter, cell count; reporter expression induced with tamoxifen; inhibition, % at 2 µM; 130,000 tested, 0.9% active; AID 1273, 2008;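 active means inhibition above the mean plus 3 SD, with well images judged a real hit on visual review, cut at about 60% in these data, passing the limit was not always enough; inconclusive means inhibition over the cutoff but images rejected on review; inactive means inhibition not above the cutoff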
INS promoter inh cell count – also measured in INS promoter inh; calls as there; normalized cell count, %; measured here: cell count, toxicity; reference of the scale not given here;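 cells exposed to compound for 48 h; stained nuclei by imaging scaled within each plate; lower means fewer cells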
HSV replic up primary fold – also measured in HSV replic up; calls as there; fold increase; compound at 10 µM; measured here: primary screen fold increase 10 uM; tested in PC3 cells;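 GFP signal in the first replicate; 1 = infected wells without compound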
* marks the source's active call; other numbers are inactive results; i = inactive; ? = inconclusive; · = not tested or not shown.

SMILES | PKD1 inh | RGS16-Gao | HSV replic up | HSV replic up primary fold | GALR2 agonist | INS promoter inh | INS promoter inh cell count
CSc1cccc(CNC(=O)CC2C(=O)NCCN2CC(C)(C)C)c1 (configuration not stated) | 11 | 98 | i | 0.95 | · | · | ·
Nc1ccccc1-c1nc2ccccc2s1 | 6 | 101 | i | 0.92 | · | · | ·
O=C(Cc1c(Sc2ccccc2)c2ccccc2n1Cc1ccccc1)NCCO | 4 | 99 | i | 0.79 | -0.4 | -25 | 123
Cn1ncc([N+](=O)[O-])c1C(=O)N/N=C/c1cccc([N+](=O)[O-])c1 | 4 | 97 | i | 0.91 | · | · | ·
CC(SC1=NCCS1)C(=O)Nc1nnc(-c2ccc(Br)cc2)s1 (configuration not stated) | -1 | 104 | i | 0.93 | -2.2 | · | ·
N#Cc1c(Sc2ncc(C(F)(F)F)cc2Cl)nsc1C/C=N\OCc1ccccc1Br | -7 | 96 | i | 1.1 | -3.3 | -3 | 137
Nc1ncnc(N2CCc3ccccc32)c1[N+](=O)[O-] | 47 | 113 | i | 0.67 | · | 43 | 127
CCOc1ccc(C(=O)/C=C/c2ccc(OC)c(OC)c2)cc1 | 0 | 101 | i | 0.75 | · | · | ·
CCOC(=O)COc1ccsc1C(=O)OC | 2 | 98 | i | 0.85 | -2.7 | -233 | 126
O=C(O)CC(C(=O)OC1CCCCC1)N1CCOCC1 (configuration not stated) | -1 | 104 | i | 0.81 | -1.0 | 54 | 123
COC(=O)c1cc2c(cc1N)OCCO2 | 8 | 104 | i | 1 | · | · | ·
O=C(NC(=S)Nc1nc(-c2cccc([N+](=O)[O-])c2)cs1)c1cc(Cl)ccc1Cl | 1 | 77 | i | 0.97 | · | · | ·
CCOC(=O)C(NC(=O)c1ccccc1)(N1CCOCC1)C(F)(F)F (configuration not stated) | 1 | 110 | i | 0.93 | -0.4 | · | ·
N/C(=N\OC(=O)c1ccccc1Cl)c1ccc(Cl)cc1 | 12 | 106 | i | 1 | -1.6 | 12 | 107
Cc1ccc(Nc2nc(N)nc(CN3CCN(C(=O)c4ccco4)CC3)n2)cc1Cl | -7 | 116 | i | 1.1 | -0.4 | · | ·
C=CCc1cc(/C=C2/NC(=O)N(CC(=O)OC)C2=O)cc(OC)c1O | -1 | 119 | i | 1 | · | -55 | 69
CC(C)(C)n1nnnc1C(c1ccc(C(F)(F)F)cc1)N(Cc1ccccc1)Cc1ccco1 (configuration not stated) | -6 | 99 | · | · | -1.2 | 9 | 113
CN1C(=O)C(CC(=O)Nc2ccc(F)cc2)N(Cc2ccco2)C1=S (configuration not stated) | 0 | 96 | i | 0.96 | · | · | ·
CCn1c(=O)c2ccccc2n2c(SCC(=O)N3CCc4ccccc4C3)nnc12 | -5 | 104 | i | 0.86 | -1.2 | · | ·
COc1ccccc1N1CCN(C(=O)COc2ccc(Cl)cc2Br)CC1 | -9 | 101 | i | 0.92 | 0.0 | · | ·
CN(C)CCCNC(=O)CCC1CCCCC1 | 2 | 93 | i | 0.96 | -2.4 | -160 | 111
O=S(=O)(Nc1ccc(Cc2ccncc2)cc1)c1ccc(Cl)c(Cl)c1 | 13 | 99 | · | · | 0.0 | -24 | 85
CCOC(=O)c1sc2ncnc(N3CCN(c4ccc(OC)cc4)CC3)c2c1C | -13 | 103 | i | 0.84 | -1.3 | · | ·
CCOC(=O)N1CCN(C(c2ccccc2)c2sc3nc(C)nn3c2O)CC1 (configuration not stated) | 19 | 83 | i | 0.88 | 0.6 | -5 | 197
Cc1cc(C(F)(F)F)c(C#N)c(SCC(=O)NC2CC2)n1 | -5 | 95 | i | 1 | -1.4 | · | ·
COC(=O)c1ccc(CC(=O)c2c(C)cc(O)cc2O)o1 | -7 | 100 | i | 0.74 | -0.6 | 50 | 95
Cc1ccc2c(c1)[nH]c1c(=O)n(CCC3=CCCCC3)cnc12 | -11 | 105 | i | 1 | -0.7 | 19 | 72
N#Cc1nc(-c2ccccc2Cl)oc1NCc1ccco1 | -9 | 94 | i | 1.1 | -0.4 | -6 | 110
Cc1cc(N2CCN(C)CC2)nc(N2CCOCC2)n1 | 0 | 102 | i | 0.9 | -0.7 | -89 | 57
COc1ccc(-n2nc3c(c2NC(=O)c2ccc(S(=O)(=O)N4CCOCC4)cc2)CS(=O)(=O)C3)cc1 | 1 | 105 | i | 0.9 | · | 24 | 72
O=C(Nc1ccc2c(c1)CCC2)c1c(F)cccc1Cl | 3 | 98 | i | 1 | · | · | ·
COC(=O)c1cc(OC)c(OC)cc1NC(=O)c1cc(C(C)(C)C)oc1C | · | 100 | i | 0.87 | · | · | ·
O=C1CC(N2CCN(CCc3ccccn3)CC2)C(=O)N1c1ccc(Cl)cc1 (configuration not stated) | 4 | 98 | i | 1.1 | -1.9 | 21 | 87
CCC(=O)Nc1cc(-c2nn(C)c(=O)c3ccccc23)ccc1OC | 6 | 84 | i | 0.98 | -1.7 | 16 | 117
Nc1nnc(Cc2c[nH]c3ccccc23)s1 | -11 | 113 | i | 0.94 | -1.9 | 23 | 51
N#CC12COC3(CCCCC3C1(C#N)C#N)OC2=N (configuration not stated) | · | 107 | ? | · | · | · | ·

Single entries from the entries so far:
In RGS16-Gao, Nc1nnc(Cc2c[nH]c3ccccc23)s1 is entered as 113
In INS promoter inh cell count, COC(=O)c1ccc(CC(=O)c2c(C)cc(O)cc2O)o1 is entered as 95

(further entries)
SMILES | PKD1 inh | RGS16-Gao | HSV replic up | HSV replic up primary fold | GALR2 agonist | INS promoter inh | INS promoter inh cell count
O=C(NCc1ccc(Cl)cc1)c1cccnc1 | -11 | 111 | i | 0.97 | -1.7 | -10 | 69
O=C(Cn1c(=O)n(Cc2ccco2)c(=O)c2c3c(sc21)CCCCC3)Nc1ccccc1 | -9 | 95 | i | 0.89 | -1.5 | 8 | 103
Cc1cnc(N)c2c(=O)oc3ccccc3c12 | 10 | 103 | i | 0.98 | -2.8 | · | ·
CC(C)OC(=O)CCCCCN1C(=O)CSC1=S | 3 | 102 | i | 1 | -1.8 | 33 | 141
O=C(NCCCc1ccccc1)c1cnc2n(c1=O)CCS2 | -1 | 103 | i | 1.1 | -2.2 | -88 | 81
N#CC(c1cccc(Cl)c1)c1ccc2c(C(F)(F)F)cc(C(F)(F)F)nc2n1 (configuration not stated) | 4 | 97 | i | 0.63 | -1.9 | -57 | 101
COc1ccc(CC(NC(C)=O)C(=O)NC2CCN(C(=O)c3cnccn3)CC2)cc1 (configuration not stated) | 5 | 95 | i | 1.1 | -3.1 | 43 | 88
CN(C)C(=O)N1CCCC(C(=O)NCc2cccs2)C1 (configuration not stated) | -2 | 103 | i | 0.95 | -1.8 | 50 | 107
Cc1ccccc1-n1c(SCC(=O)N2CCCC2)nnc1-c1ccccn1 | -7 | 106 | i | 1 | -2.2 | · | ·
CC(/C=C/c1ccccc1)=N\Nc1nc(C)cc(C)n1 | -6 | 102 | i | 0.93 | -1.5 | 21 | 101
CC(=O)CSc1nnc2cc(C)c3ccccc3n12 | 1 | 106 | i | 0.88 | · | -20 | 133
O=C(O)c1cccc(NC(=S)NC(=O)c2ccc(-c3ccccc3)cc2)c1 | -4 | 106 | i | 1 | · | 0 | 103
COc1ccc(N2CCN(C(=O)CCCCn3c(=O)[nH]c4ccsc4c3=O)CC2)cc1 | -10 | 105 | i | 0.88 | · | 25 | 90
Cc1cccc(N2CCN(c3nc4ccccc4n4cnnc34)CC2)c1C | 2 | 95 | i | 0.79 | -2.5 | · | ·
N/C(=N\OC(=O)/C=C/c1ccccc1)c1ccccc1 | -1 | 103 | i | 0.99 | -0.8 | -22 | 139
Cc1ccc(Nc2nc(N)c(C#N)c(CC#N)c2C#N)cc1 | 4 | 102 | i | 1.1 | · | · | ·
Cc1cc(=O)[nH]c2nnnn12 | · | 103 | i | 0.99 | · | · | ·
COc1ccc(N2CCN(C(=O)CSc3nnc(COc4cccc5cccnc45)o3)CC2)cc1 | -2 | 95 | i | 1.3 | -2.6 | -12 | 58
O=C(Nc1ccccc1)c1ccc(Nc2c([N+](=O)[O-])cc([N+](=O)[O-])c3ccccc23)cc1 | -7 | 100 | i | 0.87 | -0.9 | -21 | 112
CN(CC(=O)NC1CC(C)(C)NC(C)(C)C1)S(=O)(=O)c1cc(Cl)ccc1Cl | 4 | 106 | i | 1.1 | · | 36 | 101
CC(C)(C)c1cc(=O)n2[nH]c(N)nc2n1 | 3 | 107 | i | 0.92 | · | · | ·
CCCCSc1nc(C)nc2c1c(=O)n(C)c(=O)n2C | 11 | 98 | i | 0.88 | -2.7 | · | ·
C/C(=C\C(=O)c1ccc(Br)cc1)NCc1ccc2c(c1)OCO2 | -6 | 99 | i | 0.93 | -4.2 | 13 | 130
C=CCN=C1CC(C)(C)C(C(=O)OC)C(O)=C1C(=O)CCC (configuration not stated) | -2 | 102 | i | 0.97 | · | · | ·
CS/C(=C\[N+](=O)[O-])Nc1ccc(Cl)cc1 | 3 | 97 | i | 0.87 | -3.8 | 36 | 118
CCn1c(CNC(=O)c2ccc(OC)c(OC)c2)nnc1SCC(=O)Nc1ccc(OC)cc1 | -13 | 77 | · | · | -0.2 | 0 | 79
CCOC(=O)C(C)Sc1ncc(-c2ccc(Cl)cc2)cn1 (configuration not stated) | -5 | 76 | i | 0.9 | -0.7 | · | ·
CN(C)CCCCOc1ccc(F)cc1 | -1 | 92 | i | 1 | · | · | ·
COc1ccc(-c2csc3nc(C)nc(N4CCCCC4)c23)cc1OC | 5 | 103 | i | 0.96 | · | -8 | 88
Cc1ccc2nc(Nc3nc(C)cc(-c4ccccc4)n3)[nH]c(=O)c2c1 | · | 105 | i | 0.71 | · | · | ·
C/C(=N\NS(=O)(=O)c1ccccc1)c1cc(Cl)cc(Cl)c1O | 0 | 106 | i | 0.89 | · | 18 | 113
COc1cccc(NC(=O)C2C3CCC4C(CCC32)C4(Cl)Cl)c1 (configuration not stated) | -10 | 98 | i | 0.98 | -1.1 | -3 | 91
O=C(O)C1CC=CCC1C(=O)NC1CCCCC1 (configuration not stated) | -5 | 104 | i | 0.93 | · | 0 | 101
COc1ccc(CN2CCCC(CNC(=O)c3ccc(F)cc3)C2)c(F)c1 (configuration not stated) | 1 | 103 | i | 0.95 | · | -26 | 200
CCSc1nnc(NC(=O)/C=C/c2ccco2)s1 | -6 | 102 | i | 1.2 | · | 0 | 82

Molecules shown so far containing an aryl thioether with sulfur outside any ring:
SMILES | PKD1 inh | RGS16-Gao | HSV replic up | HSV replic up primary fold | GALR2 agonist | INS promoter inh | INS promoter inh cell count
CSc1cccc(CNC(=O)CC2C(=O)NCCN2CC(C)(C)C)c1 (configuration not stated) | 11 | 98 | i | 0.95 | · | · | ·
O=C(Cc1c(Sc2ccccc2)c2ccccc2n1Cc1ccccc1)NCCO | 4 | 99 | i | 0.79 | -0.4 | -25 | 123
N#Cc1c(Sc2ncc(C(F)(F)F)cc2Cl)nsc1C/C=N\OCc1ccccc1Br | -7 | 96 | i | 1.1 | -3.3 | -3 | 137
CCn1c(=O)c2ccccc2n2c(SCC(=O)N3CCc4ccccc4C3)nnc12 | -5 | 104 | i | 0.86 | -1.2 | · | ·
Cc1cc(C(F)(F)F)c(C#N)c(SCC(=O)NC2CC2)n1 | -5 | 95 | i | 1 | -1.4 | · | ·
Cc1ccccc1-n1c(SCC(=O)N2CCCC2)nnc1-c1ccccn1 | -7 | 106 | i | 1 | -2.2 | · | ·
CC(=O)CSc1nnc2cc(C)c3ccccc3n12 | 1 | 106 | i | 0.88 | · | -20 | 133
COc1ccc(N2CCN(C(=O)CSc3nnc(COc4cccc5cccnc45)o3)CC2)cc1 | -2 | 95 | i | 1.3 | -2.6 | -12 | 58
CCCCSc1nc(C)nc2c1c(=O)n(C)c(=O)n2C | 11 | 98 | i | 0.88 | -2.7 | · | ·
CCn1c(CNC(=O)c2ccc(OC)c(OC)c2)nnc1SCC(=O)Nc1ccc(OC)cc1 | -13 | 77 | · | · | -0.2 | 0 | 79
CCOC(=O)C(C)Sc1ncc(-c2ccc(Cl)cc2)cn1 (configuration not stated) | -5 | 76 | i | 0.9 | -0.7 | · | ·
CCSc1nnc(NC(=O)/C=C/c2ccco2)s1 | -6 | 102 | i | 1.2 | · | 0 | 82
